Screens as filed in PubChem.
D2 PAM: human D2 receptor positive allosteric modulation; P14416; DiscoveRx D2 beta-arrestin cells, luminescence, 90 min; 100% = 57 uM dopamine signal; potentiation, % (no concentration beside the values); 360,000 compounds, 0.23% hits; active = potentiation of 50% or more; inconclusive = 30% to 50%; inactive = 30% or less;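 further: compound concentration not given in the record; tested on top of an EC20 dose of dopamine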
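PathHunter beta-arrestin assay in DiscoveRx D2 cells. Compounds were added with an EC20 of dopamine (50 nM final) for 90 min at 37 deg C. Luminescence was read 1 h after detection reagent, with 57 uM dopamine as the EC100 control.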
gsp antagonist: antagonists of gsp mutant (McCune-Albright syndrome); 340,000 compounds, 0.4% hits; Potency, µM (doses to about 76.9 µM), for the others: at the highest dose activity change, negative = inhibition, actives largely listed as inhibitors; AID 624288; gsp-mutant cells, cAMP HTRF, 30 min; control for the full effect not named in the record; active = falling curve of any shape with a large fitted effect; inconclusive = falling curve, mostly with a smaller effect; inactive = flat or rising curve; cell line not stated here;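 further: intracellular cAMP measured with PDE inhibitor Ro 20-1724 present during compound exposure; potency means the concentration at half of the fitted maximal effect; on the % scale 0 is the no-effect control and ±100 the full control effect; nearly all actives have a fitted effect of over 65% in size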
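Cells, 2000/well, grown 16–24 h in DMEM 10% FBS with 0.5 mg/ml G418, then compounds plus […] (300 uM addition stock), 30 min at 37C. cAMP read by HTRF (cAMP-d2 and anti-cAMP antibody-K in lysis buffer) after 30 min RT.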
CtBP-E1A inh: blocks the CtBP interaction with E1A | AlphaScreen GST-E1A/His-CtBP binding, 1536-well; hits give low values; control for the full effect not named in the record | activity change, % (no concentration beside the values) | 340,000 compounds, 0.49% hits | AID 651724; in the data active means activity change below about -65%; inconclusive means about -30% to -65%; inactive means above about -30%; further: on the % scale 0 is the no-effect control and ±100 the full control effect
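GST-E1A and His-tagged CtBP (125 nM each as 5X stock) were preincubated with pin-transferred compound for 2 h at 37 °C in the dark, then glutathione donor and nickel acceptor beads were added for 1 h before AlphaScreen reading.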
Six1-Eya2 inh: inhibitors of human Six1/Eya2 interaction; 360,000 compounds, 0.56% hits; Q15475+O00167; activity change, % (concentration not given with the values); AlphaScreen GST-Six1/His-Eya2 binding, biochemical; hits give low values; control for the full effect not named in the record; in the data active = activity change below about -65%; inconclusive = about -30% to -65%; inactive = above about -30%; further: on the % scale 0 is the no-effect control and ±100 the full control effect
Target sequence (O00167 whole entry, looked up): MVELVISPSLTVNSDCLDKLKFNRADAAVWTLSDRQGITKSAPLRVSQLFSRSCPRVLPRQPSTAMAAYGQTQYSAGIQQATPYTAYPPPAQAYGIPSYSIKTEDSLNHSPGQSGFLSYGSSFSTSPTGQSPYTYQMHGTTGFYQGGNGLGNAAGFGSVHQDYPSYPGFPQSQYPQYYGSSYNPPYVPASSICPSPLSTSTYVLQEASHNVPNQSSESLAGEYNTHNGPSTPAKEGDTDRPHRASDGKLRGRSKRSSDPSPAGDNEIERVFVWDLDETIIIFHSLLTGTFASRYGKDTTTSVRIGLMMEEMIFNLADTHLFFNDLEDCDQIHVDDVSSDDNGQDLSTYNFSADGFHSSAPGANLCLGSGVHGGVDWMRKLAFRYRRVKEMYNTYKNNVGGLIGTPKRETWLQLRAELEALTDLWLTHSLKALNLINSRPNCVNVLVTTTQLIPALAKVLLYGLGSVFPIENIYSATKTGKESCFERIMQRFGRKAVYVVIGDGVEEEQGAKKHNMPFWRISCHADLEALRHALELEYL
Target sequence (Q15475 whole entry, looked up): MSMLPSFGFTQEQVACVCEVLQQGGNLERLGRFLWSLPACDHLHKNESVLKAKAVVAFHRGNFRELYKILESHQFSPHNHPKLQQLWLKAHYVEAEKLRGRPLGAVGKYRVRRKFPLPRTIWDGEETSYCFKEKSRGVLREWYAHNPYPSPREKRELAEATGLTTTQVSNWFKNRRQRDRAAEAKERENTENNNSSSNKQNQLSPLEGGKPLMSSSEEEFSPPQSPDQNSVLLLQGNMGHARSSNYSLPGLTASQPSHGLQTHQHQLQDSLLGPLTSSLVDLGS
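Compounds are tested against tagged Six1 and Eya2 proteins bridged by glutathione donor and nickel acceptor beads; after a one-hour incubation at 37 °C without light, AlphaScreen emission is recorded.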
D2 ag: human D2 receptor agonism in beta-arrestin assay | P14416 | DiscoveRx PathHunter D2 beta-arrestin, luminescence, 90 min; 100% = 57 uM dopamine signal | activation, % (no concentration beside the values) | 360,000 compounds, 0.084% hits; in the data active = activation above about 40%; inconclusive = about 15% to 40%; inactive = below about 15%; further: compound concentration not given in the record; the text of the record calls up to 30% inactive
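Agonist mode: compounds alone added to overnight-plated D2 PathHunter cells for 90 min at 37 C, with 57 uM final dopamine (EC100) defining full response. Beta-arrestin recruitment detected by chemiluminescent reagent, read after 1 h at ambient temperature.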
gsp agonist: agonists of gsp mutant (McCune-Albright syndrome). gsp mutant cells, cAMP HTRF, 30 min; control for the full effect not named in the record. Potency, µM (titrated, usually from 76.9 µM), without a hit: at the highest dose activation (cAMP increase), usual class: activators. 340,000 compounds, 0.13% hits; active = well fitted activation curve with a large enough effect; inconclusive = small, poorly fitted or top-dose-only effect, or another doubt; inactive = no such curve, though single readings can be large or run the other way; cell line not stated here;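 further: phosphodiesterase inhibitor Ro 20-1724 added with compounds to block cAMP breakdown; potency means the concentration at half of the fitted maximal effect; nearly all actives have a fitted effect of over 60% in size; about a fifth of the inactives were tested at one dose only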
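Cells stably selected in G418 were plated at 2000/well, grown 16-24 hr, then given compounds in DMSO with the PDE inhibitor […] (300 uM solution added) for 30 min at 37C; cAMP was read by HTRF.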
The depositor's hits bear a star; ? = inconclusive; . = not tested or not shown; [ ] = dose if it differs, or a comment.

SMILES | D2 PAM | gsp antagonist | CtBP-E1A inh | Six1-Eya2 inh | D2 ag | gsp agonist
O=C(c1ccccc1)c1ccc(OCC(O)CNCc2ccc(Cl)cc2)cc1 (configuration not stated) | -7.0 | 9.6% | -1.1 | 8.5 | -2.8 | 26.9%
COC(=O)c1ccc(Cl)c(NC(=O)CSc2ncn[nH]2)c1 | -1.9 | -1.6% | -2.8 | -1.1 | -3.2 | -25.3%
N#Cc1c(N)nc(SC2CCCCC2=O)c(C#N)c1-c1ccco1 (configuration not stated) | -0.8 | 8.8% | ? | -66.3* | -1.4 | 0.9%
CCN(CC(=O)NCCC1=CCCCC1)S(=O)(=O)c1ccccc1 | -8.4 | 1.5% | -11.3 | 2.2 | -2.5 | ?
COc1ccc(Nc2nnc(SCC3CCCCO3)s2)cc1 (configuration not stated) | -0.8 | -5.6% | -7.9 | -7.4 | -5.2 | -22.6%
COc1ccc(S(=O)(=O)N2CCOC2CNC(=O)C(=O)NCCCc2ccccc2)cc1 (configuration not stated) | 7.8 | 9.0% | 5.9 | 1.8 | -2.4 | ?
CCC(C)[C@H](N)c1nnc(SCC(=O)Nc2ccc(C)cc2C)o1 (some centres not stated) | 1.1 | 10.6% | 0.4 | -1.0 | 4.1 | ?
N#C/C(=C\c1c(N2CCC(C(N)=O)CC2)nc2ccccn2c1=O)S(=O)(=O)c1ccc(Cl)cc1 | 0.2 | -16.7% | -3.7 | -17.0 | 0.5 | ?
Cc1sc[n+](CC(=O)c2ccc(Br)cc2)c1C | -11.7 | 12.1% | -2.1 | -3.6 | -4.8 | -22.7%
CC(C)Oc1ccc(S(=O)(=O)N2CCOCC2)cc1NC(=O)C1CCCC1 | 2.2 | -9.7% | 5.3 | 3.6 | 0.9 | 3.4%
Cc1cccc(CN2C[C@]34CC[C@@H](C[C@@H]3S2(=O)=O)O4)c1 | -4.8 | 9.9% | 4.0 | 1.4 | 0.2 | .
CNCc1ccccc1OCc1ccc(F)cc1 | -22.8 | 4.4% | 1.0 | 15.2 | -5.1 | 12.2%[15.4 µM]
Cc1ccc(S(=O)(=O)N2CCOCC2)cc1C(=O)N1C(=O)c2cccc(N)c2C1=O | -11.5 | -2.3% | 6.1 | -2.4 | -2.3 | -0.4%
CC(=O)N1CCN(c2cc(-c3ccccc3)nc3cc(-c4cccc(Cl)c4)nn23)CC1 | . | . | 1.1 | -0.5 | 0.7 | 10.1%
CC(=O)c1c(C)[nH]c(C(=O)CSc2nnc(C)s2)c1C | -8.3 | 5.3% | 6.3 | -7.6 | -5.5 | -0.4%[15.4 µM]
Cc1ccc2[nH]c3c(c2c1)CN(C(C)C)CC3 | -22.5 | 7.0% | -6.0 | -7.9 | -3.5 | 0.5%
N=c1c(C(=O)NC2CCCCC2)cc2c(=O)n3ccccc3nc2n1CCc1ccccc1 | -9.1 | 2.6% | -9.1 | -17.7 | -5.9 | 0.7%[15.4 µM]
O=C(NCCN1CCOCC1)/C(=C/c1ccc(F)cc1)NC(=O)c1ccccc1 | -10.7 | 5.0% | -12.6 | -6.6 | -5.2 | -6.3%[15.4 µM]
O=C(OCc1c(-c2ccccc2)ncc2ccccc12)c1cccc(Br)c1 | 1.7 | 3.3% | 2.0 | -4.5 | -0.6 | -26.9%
O=C(O)/C(=C\c1cccs1)Sc1nnc(-c2ccc(F)cc2)o1 | -2.8 | 3.0% | -21.1 | -1.1 | -2.1 | -42.1%[inhibitor]
CCOC(=O)C1=NNC2(CC(=O)N(c3cccc(C)c3)C2=O)C1 (configuration not stated) | -1.9 | 10.9% | 7.4 | 2.1 | -2.4 | 2.5%
CC(=O)Nc1ccc(CN2CCN(C3CCCCC3)C(CCO)C2)cc1 (configuration not stated) | -11.9 | -4.6% | -3.7 | 0.5 | -5.7 | 6.2%
O=C(Cn1nnc(-c2ccc(F)cc2)n1)OCC(=O)c1ccccc1 | -6.8 | -14.2% | 10.2 | -3.2 | -0.2 | -44.3%[inhibitor]
Cc1ccc(C(=O)NNC(=O)C2CCN(c3ncccn3)CC2)cc1 | 2.7 | 4.4% | 12.1 | 3.1 | 0.4 | -26.6%
Cn1c(C(O)C(O)c2ccccc2)nc2ccccc21 (configuration not stated) | -6.4 | 2.2% | . | -0.1 | -6.2 | -48.5%[inhibitor]

(cont.)
SMILES | D2 PAM | gsp antagonist | CtBP-E1A inh | Six1-Eya2 inh | D2 ag | gsp agonist
COc1cccc(NC(=O)C2(S(=O)(=O)c3ccc(Cl)cc3)CC2)c1 | -2.1 | -3.8% | -0.3 | -1.3 | -0.9 | 8.8%[15.4 µM]
O=C(CN1C(=O)/C(=C\c2ccc(F)cc2)Oc2ccccc21)NCc1ccco1 | 10.2 | -4.7% | -7.7 | 3.3 | -1.3 | ?
CC(=O)Nc1cccc(-c2nc3ccc(NC(C)=O)cc3[nH]2)c1 | -13.0 | 5.8% | 9.3 | -0.7 | -1.6 | -0.9%
Cc1ncc(CN2CCCC(C(=O)Nc3ccc(-c4cccc(F)c4)cc3)C2)n1C (configuration not stated) | -4.4 | -2.8% | 1.4 | -6.3 | -0.6 | -59.9%[inhibitor]
CCCCN1C(=O)NC(c2cccc([N+](=O)[O-])c2)C(C(=O)OCC)=C1C (configuration not stated) | -4.6 | 4.8% | 1.4 | -6.1 | -1.3 | 5.8%
CCc1cc(C(=O)N(CC)CC(=O)Nc2ccc(OC)cc2)sc1C | -6.9 | -7.3% | 9.0 | 25.6 | -1.7 | ?
CCc1cc(CC)c(/C=N/NC(N)=O)c(CC)c1/C=N/NC(N)=O | 3.4 | 14.1% | 3.7 | -1.5 | 5.1 | -4.5%
CCOc1ccc2cc(/C=C/C(=O)c3ccco3)c(Cl)nc2c1 | -9.1 | 2.8% | 5.0 | 4.1 | 2.8 | -18.1%
CC1(C)Cc2nc(Cl)c(C(=O)O)cc2CO1 | -11.6 | 10.9% | 0.0 | 14.5 | -4.8 | 3.7%
O=C(CCN1C(=O)/C(=C/c2ccccc2)SC1=S)NCCCN1CCOCC1 | -7.7 | 1.3% | -0.6 | -5.7 | -2.2 | -25.9%[15.4 µM]
Nn1c(SCC(=O)Nc2ccc(F)cc2)nnc1C1CCCCC1 | -7.7 | 3.4% | 3.5 | -2.6 | -6.1 | -16.4%
COc1ccc(CNC(=O)C(=O)NCC2CCCN2S(=O)(=O)c2ccccc2)cc1 (configuration not stated) | 4.1 | -11.5% | 1.8 | -3.7 | -4.0 | -7.5%[15.4 µM]
CCOc1ccc(S(=O)(=O)N2CCN(Cc3ccccc3)CC2)c2cccnc12 | -11.3 | -13.7% | -20.5 | -16.3 | 3.7 | 20.7%
CCCCOC(=O)/C(=C/C=C/c1ccccc1)NC(=O)c1ccccc1 | -8.8 | -29.9% | -22.8 | 5.3 | -0.3 | -8.6%[15.4 µM]
CCOC(=O)Nc1ccc2c(c1)N(C(=O)CCN1CCOCC1)c1ccccc1S2=O (configuration not stated) | -15.6 | 17.1% | 2.6 | -2.7 | -5.3 | 2.7%
CN(C)CCC(O)(c1ccccc1)c1ccccc1 | -14.8 | -0.3% | 8.2 | 4.1 | -1.0 | -48.4%[inhibitor]
Cc1ccc(CSc2nnc(Nc3ccc(C)cc3)s2)cc1 | -0.8 | 0.1% | 9.4 | -1.6 | -2.4 | -39.0%[inhibitor]
Cc1ccc(S(=O)(=O)N/N=C\C=C\c2ccccc2)cc1 | 0.0 | -4.7% | -2.8 | 1.4 | 2.6 | -10.1%
COc1ccccc1-n1nnnc1SCC(=O)Nc1cc(C)on1 | -7.0 | -1.2% | 4.7 | 7.7 | 0.5 | 2.2%
CCC(CC)c1nnc(NC(=O)[C@@H](NC(=O)c2cccc(C)c2)C(C)C)s1 | -11.1 | 2.1% | 8.6 | 7.2 | -3.8 | -52.5%[inhibitor]
Nc1ccccc1NC(=O)CCn1c(=S)[nH]c2ccccc2c1=O | -3.6 | 1.0% | -4.0 | 0.3 | -4.5 | 8.8%
O=S(=O)(N1CCCCC1)N1CCN(S(=O)(=O)N2CCCCC2)CC1 | -3.4 | 9.4% | 4.2 | 4.1 | 2.1 | 0.1%
C#CC1(O)CCC2C3CCc4cc(O)cc(C)c4C3CCC21C (configuration not stated) | -13.4 | -6.4% | 4.2 | -5.8 | 3.6 | ?
Cc1ccccc1OCCSc1nnc(-c2cccnc2)n1N | -9.9 | -7.4% | . | 11.2 | -6.3 | -128.4%[inhibitor]
COc1ccc(O)c(-c2c(-c3ccc(Cl)cc3)n[nH]c2C)c1 | 9.9 | -13.7% | -8.0 | -3.5 | 3.2 | -12.1%

New compounds follow.
SMILES | D2 PAM | gsp antagonist | CtBP-E1A inh | Six1-Eya2 inh | D2 ag | gsp agonist
Cc1cccc(C)c1NC(=O)CS(=O)CC(=O)Nc1ccc(F)cc1F (configuration not stated) | -6.6 | 12.9% | -5.5 | 11.3 | -1.7 | -31.0%[inhibitor]
O=C(Nc1ccc(N2CCOCC2)cc1)C1CCN(S(=O)(=O)Cc2ccccc2)CC1 | 3.4 | 2.6% | -0.2 | 9.5 | 1.3 | -0.4%
CCn1c(CSc2ncccn2)nnc1SCC(=O)N1CCc2ccccc21 | -13.7 | -10.5% | 4.6 | -0.3 | -1.3 | -16.3%
CCC1(C(=O)c2ccc(Cl)cc2)C2c3ccccc3OC(=O)C21C(=O)Nc1ccccc1 (configuration not stated) | -2.9 | -13.7% | -8.8 | -8.0 | -3.2 | -35.1%[inhibitor]
CCC(C)c1ccccc1N1CC(C(=O)Nc2cccc(S(=O)(=O)N3CCOCC3)c2)CC1=O (configuration not stated) | 0.3 | 7.8% | -0.6 | -0.6 | -4.6 | 9.1%[15.4 µM]
FC(F)(F)Oc1ccccc1C(c1nnnn1C1CCCCC1)N1CCN(C/C=C/c2ccccc2)CC1 (configuration not stated) | -13.7 | . | 0.0 | -8.8 | -7.6 | .
CN(C)c1cc[nH]c(=O)c1C#N | -1.0 | -6.5% | -0.8 | 7.1 | -2.9 | 14.3%
O=C(N/C(=C\c1ccccc1Cl)C(=O)N1CCOCC1)c1ccc([N+](=O)[O-])cc1 | 16.8 | 5.1% | -5.7 | 18.4 | 1.0 | -3.2%[15.4 µM]
Cc1ccc(SCC(=O)Nc2cc(C)on2)cc1 | -3.0 | -2.5% | 6.4 | 3.4 | 1.7 | 0.0%

Fetched by compound from the list above:
SMILES | D2 PAM | gsp antagonist | CtBP-E1A inh | Six1-Eya2 inh | D2 ag | gsp agonist
Cc1ccc(SCC(=O)Nc2cc(C)on2)cc1 | -3.0 | -2.5% | 6.4 | 3.4 | 1.7 | 0.0%
CCc1cc(C(=O)N(CC)CC(=O)Nc2ccc(OC)cc2)sc1C | -6.9 | -7.3% | 9.0 | 25.6 | -1.7 | ?

Entries of single compounds, looked up by structure. Order of values: D2 PAM | gsp antagonist | CtBP-E1A inh | Six1-Eya2 inh | D2 ag | gsp agonist
Entry for N#Cc1c(N)nc(SC2CCCCC2=O)c(C#N)c1-c1ccco1 (configuration not stated) → -0.8 | 8.8% | ? | -66.3* | -1.4 | 0.9%
Entry for COC(=O)c1ccc(Cl)c(NC(=O)CSc2ncn[nH]2)c1 → -1.9 | -1.6% | -2.8 | -1.1 | -3.2 | -25.3%
